HIV Env fusion: inhibitors of HIV-1 Env-driven cell-cell fusion, primary screen, HeLa-JRFL effector, CEM21 target cells, luciferase; inhibition, % at 12.3 µM; hit rate 1.1% among 360,000;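 active means mean replicate inhibition score of at least 50 and every replicate individually at or above 50; inconclusive means only one of the two criteria met; inactive means mean below 50 and not all replicates reaching 50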;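 further: 0% = plate neutral controls and 100% = maraviroc near 300 nM; one replicate is shown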
CSC inhib: cancer stem cell viability inhibitors, primary screen, luminescence. cancer stem cell-like cells viability. inhibition, % at 7.5 µM. hit rate 1.1% among 300,000. AID 2717, 2010;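 active means mean at 75% or more and at least half the replicates too; inconclusive means mean and replicates disagree; tested in HMLE shEcad cells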;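 further: 0% = median of negative and 100% = median of positive control wells; the first replicate is given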
PABP polyA inh: PABP poly(A) RNA binding inhibitors, primary screen, biochemical, fluorescence polarization, uHTS; Polyadenylate-binding protein 1 (Homo sapiens), P11940; inhibition, % at 35 µM; hit rate 1% among 290,000; AID 2014, 2009;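 active means 50% or more with normal probe brightness, or confirmed in later tests; inconclusive means above 50% with abnormal brightness, or retests that disagree; inactive means below 50% or failed in later tests; about a fifth of its hits are not listed in these tables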;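 further: calls also rest on retests at 20 µM and on dose response follow-up; controls were probe without protein and protein plus probe with vehicle; some compounds called inactive have numbers as strong as hits; many hits fall short of the cut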
Target sequence (P11940 whole entry, looked up): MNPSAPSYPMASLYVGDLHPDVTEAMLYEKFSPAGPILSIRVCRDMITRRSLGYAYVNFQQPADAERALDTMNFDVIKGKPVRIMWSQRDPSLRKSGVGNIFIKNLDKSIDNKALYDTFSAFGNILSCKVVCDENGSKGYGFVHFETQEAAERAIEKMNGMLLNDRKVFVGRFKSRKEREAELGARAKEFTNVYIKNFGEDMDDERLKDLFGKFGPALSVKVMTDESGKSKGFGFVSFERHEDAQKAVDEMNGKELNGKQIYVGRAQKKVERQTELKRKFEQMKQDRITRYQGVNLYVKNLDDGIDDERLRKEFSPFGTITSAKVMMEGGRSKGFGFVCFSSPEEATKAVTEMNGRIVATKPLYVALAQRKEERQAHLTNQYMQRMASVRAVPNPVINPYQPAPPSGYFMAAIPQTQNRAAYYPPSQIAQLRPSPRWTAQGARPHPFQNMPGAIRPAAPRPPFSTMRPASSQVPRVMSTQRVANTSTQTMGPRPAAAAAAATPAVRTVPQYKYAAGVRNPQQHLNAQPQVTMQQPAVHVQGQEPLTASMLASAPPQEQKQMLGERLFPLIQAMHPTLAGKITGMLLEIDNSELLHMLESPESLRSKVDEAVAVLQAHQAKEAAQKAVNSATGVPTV
Rce1 inh: yeast Rce1p protease inhibitors, primary screen, biochemical, fluorescence, cell-free homogeneous; CAAX prenyl protease 2 (Saccharomyces cerevisiae (strain ATCC 204508 / S288c)), Q03530; yeast membranes, quenched prenylated peptide cleavage fluorescence; calls only; hit rate 0.27% among 290,000; AID 2563, 2010;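 active means fall in fluorescence gain of 50% or more versus controls, with final raw signal at or below 3038400; inconclusive means same 50% fall but final raw signal above 3038400; inactive means fall in fluorescence gain under 50%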;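 further: plate controls were neutral control wells for no effect and wells lacking membranes for full effect; tested at 10 µM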
eIF4H inh: human eIF4H binding inhibitors, primary screen, translation initiation inhibitor project, biochemical, uHTS, fluorescence polarization | eIF4H fluorescence polarization binding assay | inhibition, % at 35 µM | hit rate 0.94% among 290,000 | AID 2012, 2009;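 active means 50% or more with normal probe brightness, or confirmed in later tests; inconclusive means above 50% with abnormal brightness, or retests that disagree; inactive means below 50% or failed in later tests; about a fifth of its hits are not listed in these tables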;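 further: calls also rest on retests at 20 µM and on dose response follow-up; 0% = protein and probe with vehicle and 100% = probe without protein; strong numbers were not always called active; many hits fall short of the cut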
MT1-MMP act inh: blockers of MT1-MMP proenzyme processing, primary screen, HT1080 RFP-PRO-GFP cells, GFP/RFP fluorescence; Matrix metalloproteinase-14 (Homo sapiens), P50281; GFP/RFP ratio fluorescence, overnight; percent of plate control window, DMSO zero; GFP/RFP ratio change, % at 20 µM; hit rate 0.061% among 360,000;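 active means GFP/RFP ratio change of at least 30% with cell ATP level not reduced by more than half and red fluorescence within 50% of control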; further: strong numbers were not always called active
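Assay system: HT1080 RFP-PRO-GFP cells. Benchmarks: DMSO vehicle wells and RFP-L50D-GFP reporter cell wells. Times: overnight cell settling, then overnight compound exposure, 37 °C, 5% CO2. Compound: 20 µM single dose, 1% DMSO. Read-out basis: GFP/RFP fluorescence ratio.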
Yeast UUG start: modulators of yeast start codon fidelity, primary screen, whole organism, S. cerevisiae, single point, plate reader. S. cerevisiae UUG-firefly luciferase reporter, luminescence/redox ratio. activity score, % at 18.7 µM. hit rate 0.13% among 350,000;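 active means replicate mean at a twofold rise or more, about +100% in these data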;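 further: firefly luciferase made from a UUG start codon reports start codon fidelity; reporter light over untreated wells divided by growth signal over untreated wells; some hits fall short of that in this replicate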
eIF4H inh retest: further read-out of eIF4H inh, marked with its call; inhibition, %; compound at 20 µM; confirmation average;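 mean of two retest wells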
PABP polyA inh retest: second read-out of PABP polyA inh, no call of its own (marks repeat the call); inhibition, %; compound at 20 µM; confirmation repeats;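 mean of two retest wells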
MT1-MMP act inh RFP: recorded beside MT1-MMP act inh, whose call it bears; RFP signal change, %; measured here: RFP expression control read;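 0 = vehicle wells; hits needed this value within 50% of zero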
Active calls of the source: *; i = inactive; ? = inconclusive; . = not tested or not shown.

SMILES	HIV Env fusion	CSC inhib	PABP polyA inh	Rce1 inh	eIF4H inh	MT1-MMP act inh	MT1-MMP act inh RFP	Yeast UUG start	others
CC1CN(C(=O)c2cc3cc([N+](=O)[O-])ccc3oc2=O)CC(C)O1 (stereo unspecified)	11	-5	2	i	2	6	3	9
COc1ccc(S(=O)(=O)N2CCOCC2)cc1NC(=O)COC(=O)c1ccc([N+](=O)[O-])s1	.	-2	.	.	.	-6	-4	1
Cc1ccc(S(=O)(=O)NCCC(=O)OCC(=O)N2CCCC2=O)cc1	1	-7	.	i	.	0	1	-11
O=C(c1ccc(CNc2c(NC3CCCCC3)c(=O)c2=O)cc1)N1CCc2ccccc21	13	.	-3	.	-7	-5	-5	-13
Cc1cccc(CSC2=NCCN2C(=O)C2CC2)c1	.	14	-8	i	5	-1	0	-14
CC(C)c1ccccc1-n1c(SCC(=O)c2ccc3c(c2)NC(=O)CO3)nc2ccccc2c1=O	-73	-3	-14	.	-13	-16	-18	-10
CCOC(=O)c1ccc(NC(=O)CCOc2ccc(C)cc2)cc1	-36	-1	-5	i	-7	-4	-2	-7
COc1ccccc1N=Cc1c(C)c(C#N)c2[nH]c3ccccc3n2c1=O	7	8	?	i	?	-16	4	4
COc1ccc(C(=O)Nc2ccc(C(=O)N3CCC(C)CC3)cc2)cc1OC	8	-12	7	i	3	0	-3	8
CCOC(=O)c1c(NC(=S)Nc2cc([N+](=O)[O-])ccc2OC)sc2c1CCCCC2	.	-11	22	i	-2	.	.	.
O=C(OC(C(=O)NC1CCCCC1)c1ccccn1)c1cccs1 (stereo unspecified)	13	-7	1	i	-1	-3	6	-8
COC(=O)c1cc(S(=O)(=O)Nc2cccc(C)c2C)cn1C	5	1	-5	i	-5	-1	-3	9
O=C(CSc1nnc(Cc2ccccc2)n1-c1ccc(Cl)cc1)N1CCOCC1	.	8	-3	i	-2	-2	-3	-5
CCN(C(=O)c1ccc(S(=O)(=O)N2CCCCC2)cc1)C1CCS(=O)(=O)C1 (stereo unspecified)	.	3	.	i	.	-2	0	.
COCCOc1ccc(C(F)(F)F)cc1NC(=O)COC(=O)c1ccc(N2CCCC2=O)cc1	-11	8	.	.	.	5	-2	-3
CCC(Sc1nc(C)cc(=O)[nH]1)C(=O)Nc1sc2c(c1C#N)CCCC2 (stereo unspecified)	.	4	5	i	-1	24	-10	-5
CCC(=O)c1ccc(OCC(=O)Nc2nc(-c3cccnc3)cs2)cc1	13	-11	.	i	.	1	-4	-11
COc1ccc(C(=O)Nc2ccc(S(=O)(=O)NCc3ccco3)cc2)cc1OC	-58	-6	9	i	-8	12	-1	18
O=C(C[n+]1cccc(NC(=O)c2ccccc2)c1)c1ccccc1	.	-3	-9	i	6	3	2	.
O=C(NCCC1=CCCCC1)C1CC(=O)N(Cc2ccccc2)C1 (stereo unspecified)	15	-11	16	i	14	2	10	2
O=c1cc(-c2ccc(O)cc2)oc2ccc3ccccc3c12	.	90*	.	.	.	-1	-7	-67
COc1ccc(OC)c(COC(=O)c2cc([N+](=O)[O-])ccc2N2CCOCC2)c1	48	.	.	.	.	-1	-10	-15
O=C(CCCn1c(=O)c2ccccc2n(Cc2cccc(F)c2)c1=O)NC1CCN(Cc2ccccc2)CC1	9	-4	-7	i	-3	.	.	.
COc1ccccc1C(=O)NCCC(=O)N(C)Cc1ccc(C)o1	-4	-5	2	i	-16	5	6	-3
CC(=O)Nc1ccc(NC(=O)CSC2=NS(=O)(=O)c3ccccc3N2)cc1	-2	13	.	i	.	5	2	-23

Reprinted at random: four records from the list.
SMILES	HIV Env fusion	CSC inhib	PABP polyA inh	Rce1 inh	eIF4H inh	MT1-MMP act inh	MT1-MMP act inh RFP	Yeast UUG start	others
COCCOc1ccc(C(F)(F)F)cc1NC(=O)COC(=O)c1ccc(N2CCCC2=O)cc1	-11	8	.	.	.	5	-2	-3
COc1ccc(S(=O)(=O)N2CCOCC2)cc1NC(=O)COC(=O)c1ccc([N+](=O)[O-])s1	.	-2	.	.	.	-6	-4	1
COc1ccc(C(=O)Nc2ccc(S(=O)(=O)NCc3ccco3)cc2)cc1OC	-58	-6	9	i	-8	12	-1	18
O=C(CCCn1c(=O)c2ccccc2n(Cc2cccc(F)c2)c1=O)NC1CCN(Cc2ccccc2)CC1	9	-4	-7	i	-3	.	.	.

Following part
SMILES	HIV Env fusion	CSC inhib	PABP polyA inh	Rce1 inh	eIF4H inh	MT1-MMP act inh	MT1-MMP act inh RFP	Yeast UUG start	others
COc1ccc(NC(=O)CN(C)CC(=O)NCc2ccc(C)cc2)cc1	2	-13	.	.	.	-1	0	-14
COc1ccc(NC(=O)c2cc(S(=O)(=O)N3CCCCC3)c[nH]2)c(OC)c1	-1	-5	-1	i	-3	5	1	-3
CCN1/C(=C/C=C/C=C/c2sc3ccccc3[n+]2CC)Sc2ccccc21	.	69	8	i	-12	.	.	.
Cc1ccc(-c2noc(-c3ccccc3F)n2)cc1	-117	5	-9	i	-4	2	4	.
COCCCNC(=S)NNC(=O)c1csc(C)n1	-22	9	-10	i	11	-2	1	.
O=C(NCCN1CCOCC1)C(Sc1ccccc1)c1ccccc1 (stereo unspecified)	0	-14	5	i	-13	-2	-2	.
N=C1C(c2nc3ccccc3[nH]2)=C(O)CN1c1ccc(F)cc1	.	10	22	i	8	9	4	-11
O=C(N=C1SC2CS(=O)(=O)CC2N1c1ccc(Cl)c(Cl)c1)C1CCCO1 (stereo unspecified)	5	1	-3	i	-2	0	2	-11
CCc1cccc(NS(=O)(=O)c2ccc3c(c2)NC(=O)CC(=O)N3)c1	-1	-10	19	i	-5	3	2	-10
CSc1nc(C)cc(SCCO)n1	-63	-24	-6	i	0	-2	0	-4
COc1ccc(NC(=O)n2ncc3c(C)cccc32)cc1OC	-64	-1	5	i	-7	0	2	-12
N/C(=N\OC(=O)c1cccc(F)c1)c1ccccn1	-19	-5	3	i	5	-1	4	-72
COC(=O)c1cc(C(=O)OCC(=O)NC2CCCC2)cc([N+](=O)[O-])c1	-7	-10	-7	i	5	0	1	4
COc1cc(C(=O)COC(=O)c2cccs2)cc(OC)c1OC	-13	2	.	.	.	2	1	-16
O=C(COc1ccc(Cl)cc1Cl)Nc1nnc(C2=COCCO2)o1	9	-2	-1	i	3	-4	-1	-15
COc1ccc(OC)c(CNC(=O)C2CCN(S(=O)(=O)N3CCCC3)CC2)c1	.	-12	0	i	-4	1	-2	-21
COC(=O)c1ccc(NS(=O)(=O)c2ccc3[nH]c(=O)oc3c2)cc1	7	.	21	i	66*	-4	0	8	eIF4H inh retest=58*;PABP polyA inh retest=17
CC(SCc1ccccc1)C(=O)Nc1ccccc1-c1ccccc1 (stereo unspecified)	-8	12	-4	i	2	-8	-3	.
O=C(Nc1cccc2cccnc12)c1ccc2sc([C@@H]3O[C@H](CO)[C@H](O)[C@H](O)[C@H]3O)nc2c1	-46	.	.	.	.	5	6	-3
O=C(NC(=S)Nc1ccc2c(c1)OCO2)c1ccccc1	.	12	6	i	0	3	3	-17
COc1cccc(-c2cc(C(=O)Nc3ccn(Cc4ccc(C)cc4)n3)no2)c1	4	0	0	i	3	-1	-21	-6
CCOC(=O)C1CCN(C(C(=O)NC2CCCCC2)c2ccc(OC)cc2)CC1 (stereo unspecified)	-16	10	-1	.	1	-3	-2	-14
CC1(C)CC(O)CC(C)(C)N1CC(O)COCCOc1ccc(Br)cc1 (stereo unspecified)	-86	.	-2	i	-1	6	5	-27
CSc1nnc2c(n1)OC(c1ccc(C(=O)O)cc1)N(C(C)=O)c1ccccc1-2 (stereo unspecified)	2	4	5	i	3	9	9	-13
Cc1ccccc1-c1ccc(=O)n(CC(=O)Nc2ccc(-n3cnnn3)cc2)n1	1	-4	10	i	0	1	2	1
SMILES	HIV Env fusion	CSC inhib	PABP polyA inh	Rce1 inh	eIF4H inh	MT1-MMP act inh	MT1-MMP act inh RFP	Yeast UUG start	others
CCN1C(=O)Nc2cccc3cccc1c23	62*	4	.	i	.	11	9	-19
Cc1ccc(NC(=O)c2ccc(=O)[nH]c2)cc1S(=O)(=O)N1CCCCC1	-5	-3	4	i	0	2	2	.
COc1ccc2nc(SCC(=O)NCc3ccc(S(N)(=O)=O)cc3)[nH]c2c1	9	-14	-6	i	-6	2	2	-11
COC(=O)CSc1nnc(-c2ccncc2)o1	-38	-7	10	i	4	-11	-1	-16
Cc1cccc(NC2=NCC(=O)N2CCc2ccccc2)c1	-131	4	2	i	-1	-6	-1	-2
CC1=C(C(=O)OC2CCCCC2)C(c2ccc(O)cc2)NC(=O)N1 (stereo unspecified)	-9	-10	-1	i	-7	1	-4	11
Cc1nc([N+](=O)[O-])cn1CC(O)c1ccc(F)cc1 (stereo unspecified)	7	-9	11	i	-8	5	5	-20
CC(=O)Nn1c(C)nnc1-n1nc(C)cc1C	.	12	0	i	-9	-4	1	.
COc1ccc(CCNC(=O)CCn2c(=O)oc3ccccc32)cc1	9	-20	8	i	0	-5	1	-20
CCCCNc1ccccc1C(=O)OCC(=O)Nc1ccc(S(N)(=O)=O)cc1	-24	-1	0	?	6	1	0	-10
CC1CCC(NC(=O)CN2CCCN(Cc3ccc(F)cc3Cl)C2=O)CC1 (stereo unspecified)	.	-5	2	i	3	-3	-12	11
O=C(Nc1ccc2c(c1)OCCO2)c1c[nH]c(=O)n(-c2ccc(F)c(Cl)c2)c1=O	-6	0	-2	i	5	5	3	-8
CC1(C(=O)NS(=O)(=O)c2cccc(OC(F)F)c2)CCN1C(=O)c1ccccc1 (stereo unspecified)	-5	.	.	.	.	1	5	-3
Cc1cc(C(=O)OCC(=O)N(C)c2ccccc2)c(C)o1	.	-8	.	.	.	-2	-1	6
CC(C)Oc1ccc(CCNC(=O)CC2C(=O)NCCN2C)cc1 (stereo unspecified)	0	0	8	i	0	0	0	-6
CC(C)CCNC(=O)c1ccc(Cl)c(NC(=O)c2ccccc2F)c1	-14	55	14	i	-3	.	.	.
CCC(NC(=O)c1cncc(Br)c1)c1ccccc1 (stereo unspecified)	9	-12	.	i	.	0	1	-3
COc1cc(OC)nc(Oc2ccccc2C=O)n1	-15	.	.	.	.	1	3	-10
COc1ccccc1NS(=O)(=O)c1cc(NC(=O)CNC(=O)c2ccc(C)s2)ccc1Cl	.	10	-8	i	6	5	-5	3
O=C(NCCCc1nc2ccccc2[nH]1)c1ccc(F)cc1	11	4	-11	i	-3	3	2	.
COc1ccc(-c2sc3ccc(OC)cc3c2C#Cc2ccccn2)cc1	44	111*	.	.	.	0	1	58
COc1ccccc1OCC(=O)NCCSCc1ccc(Cl)cc1	3	-4	10	i	5	0	2	.
CCN(C(=O)c1cc2cccc(OC)c2oc1=O)C1CCCCC1	.	-15	-3	.	-5	7	7	9
COc1ccccc1NC(=O)COc1ccc(/C=N/NS(=O)(=O)c2ccc(C)cc2)cc1	.	4	-11	i	-9	-4	-4	-10
O=C(NC(=S)Nc1ccccc1N1CCOCC1)c1sc2ccccc2c1Cl	-25	23	-7	.	2	2	-1	.
O=C(CSc1cn(CC(=O)N2CCCC2)c2ccccc12)NCC1CCCO1 (stereo unspecified)	1	-1	-10	i	-14	-2	1	10
